CapD inh: CapD enzyme inhibition | purified CapD enzyme, fluorescence intensity read-out; active compounds read low; some hits fall short of the stated cut | z-score (test concentration not listed) | 0.23% of 140,000 active | AID 492967;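 active = z-score under -4 in either of two replicates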;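 also: stock transfer was 100 nL into about 40 µL; score is relative to mean and spread of the plate; one replicate is shown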
AID504770: growth inhibitors of E. coli YBA685 in a screen for V. cholerae RctB (chromosome II replication) inhibitors; E. coli YBA685 rctB-dependent plasmid, OD600 growth, 3 h; active compounds read low; z-score (test concentration not listed); 0.27% of 130,000 active;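 active = z-score under -2 on both plates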;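 also: wells of about 30 µL received 100 nL stock; score is relative to mean and SD of the test wells; the first replicate is given; strong numbers were not always called active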
* = called active by the depositor; · = no result given; & = joins results of further samples.

Sample of the layout:
mol | CapD inh | AID504770
COc1ccc(Br)cc1CN(C)C(C)C(=O)N1CC(C)OC(C)C1 (centres undefined) | · | -1.6
c1ccc(Cn2c(CSc3nnnn3C3CCCCC3)nc3ccccc32)cc1 | 9 | -0.5

This part in full, from the first entry:
mol | CapD inh | AID504770
COc1ccc(Br)cc1CN(C)C(C)C(=O)N1CC(C)OC(C)C1 (centres undefined) | · | -1.6
c1ccc(Cn2c(CSc3nnnn3C3CCCCC3)nc3ccccc32)cc1 | 9 | -0.5
Cc1cc(C)n(CCc2nc3c4ccccc4nc(=S)n3[nH]2)n1 | -0.21 | -0.6
CCOc1ccc(NC(=O)[C@H](C(C)CC)N2Cc3ccccc3C2=O)cc1 (some centres undefined) | 0.21 | 0
O=C(NCCc1ccccc1)c1cccs1 | -0.76 | 1.6
Cc1ccc(-c2csc(N3N=C(c4ccc([N+](=O)[O-])cc4)CC3=O)n2)cc1 | -0.66 | ·
COC(=O)c1ccc(C=Nc2ccc3oc(-c4ccc(C)cc4)nc3c2)cc1 | -0.93 | -0.9
COc1ccc(OCC(O)CNC(=O)c2ccc(C(F)(F)F)nc2C)cc1 (centres undefined) | 0.2 | -0.55
Fc1ccc(C(c2ccccc2)(c2ccccc2F)n2ccnc2)cc1 (centres undefined) | -0.64&0.23 | ·
Nc1nc2c(o1)oc1nc(-c3ccccc3)cc(-c3ccccc3)c12 | 0.7 | -0.9
C1CCc2nnc(Cc3nnc4n3CCCCC4)n2CC1 | -0.08 | ·
COc1cc(C2=N/C(=C\c3ccc(Br)cc3)C(=O)O2)cc(OC)c1OC | -0.15 | ·

Other entries.
mol | CapD inh | AID504770
Cc1ccc(NC(=O)CSC2=NN3CCS(=O)(=O)N=C3S2)c(C)c1 | · | -0.2
O=C(NCc1ccccc1)c1cccnc1SCCC(F)=C(F)F | -0.17 | ·
CCCC12CCC(O)(CC1)C/C2=N\NS(=O)(=O)c1ccc(C)cc1 | -0.085 | 0
O=C(NC(=S)Nc1ncn[nH]1)c1ccccc1 | 0.3 | 0
Clc1ccc(-c2onc3cc(-c4ccccc4)ccc23)cc1 | -0.09 | 0.95
CC(=O)Nc1ccc2c(c1)nc(CN1CCCCC1)n2C | 3.1 | 0.35
Nc1c(C(=O)Nc2nccs2)sc2nc3c(c(-c4ccc(Cl)cc4)c12)CCCCC3 | 1.8 | ·
COc1ccc2c(c1)-c1c(ssc1=S)C(C)(C)N2C(=O)c1ccccc1Cl | -0.43 | ·
COC(=O)CSC1=C(C#N)C(=O)NC(c2ccc(O)c(OC)c2)S1 (centres undefined) | -3.6 | -0.8
FC(F)(F)c1cnc(-c2cnc3cc(-c4ccccc4)nn3c2)c(Cl)c1 | -0.29 | ·
COc1ccc(O)c(C2=Nc3ccccc3N=C(c3ccc(C(C)(C)C)cc3)C2)c1 | 0.56 | ·
COc1cc(OC)nc(C(Sc2nc(C)cc(C)n2)c2ccccc2)n1 (centres undefined) | -0.41 | ·

Next records follow:
mol | CapD inh | AID504770
Cc1ccc(/C=C2\SC(=S)N(CCCC(=O)O)C2=O)cc1 | -0.68 | -0.3
COC(=O)CSc1nnc(Cc2cc(=O)[nH]c(=O)[nH]2)n1-c1ccc(OC)cc1 | · | -1.1
Cc1ccc(C2Nc3ccc4ccccc4c3C3=C2C(=O)CC(C)(C)C3)cc1 (centres undefined) | 0.08 | -0.2
CCOC(Cn1ccc(=O)[nH]c1=O)OCC | · | -0.35
CCOC(=O)c1c(NC(=O)COc2ccccc2)sc(C(=O)Nc2ccc(C)c(Cl)c2)c1C | -0.96 | ·
CN1C(=O)NC(=O)C1(C)C | · | -0.55
CCNC(=O)C(=O)Nc1ccc(Cl)c(C(F)(F)F)c1 | -0.005 | ·
Nc1nc2ccccc2n1S(=O)(=O)c1ccc(Cl)cc1 | -0.005 | 0.85
COc1ccc(OCc2nc(C#N)c(NCCc3ccccc3)o2)cc1 | 0.035 | 1.6
COc1ccc2c(c1)-c1c(ssc1=Nc1ccccc1C)C(C)(C)N2 | -0.07 | ·
CCOC(=O)C(Sc1nnc(-c2cc(OC)cc(OC)c2)o1)c1ccccc1 (centres undefined) | · | 0.55
c1ccc(N2CCN(c3ccnc(N4CCN(c5ccccc5)CC4)n3)CC2)cc1 | · | -0.2

Continuation.
mol | CapD inh | AID504770
CCOC(=O)C1CCCNC1=O (centres undefined) | 0.3 | -0.1
Cc1ccc(S(=O)(=O)Oc2ccc(C3(C)CC(C)(C)NC(=S)N3)c(OS(=O)(=O)c3ccc(C)cc3)c2)cc1 (centres undefined) | 0.58 | ·
N#Cc1cccc(CSc2nnc(Nc3ccccc3)n2-c2ccccc2)c1 | 0.47 | -1.2
CCNC(=O)c1cc(Br)ccc1Cl | 0.2 | -0.9
C#CC1(NS(=O)(=O)c2cc(Cl)ccc2Cl)CCCCC1 | -0.84 | ·
O=C(Cc1ccccc1)Nc1ccc(I)cn1 | -0.6 | 0.1
CC(C)(C)C1CCc2onc(C(=O)Nc3ccc(C#N)cc3)c2C1 (centres undefined) | 0.66 | 0.5
O=C(O)C1CCC(Cn2c(=S)[nH]c3ccccc3c2=O)CC1 (centres undefined) | 0.12 | 0.45
CCC(C)NC(=O)c1sc2ncn(CCOC)c(=O)c2c1C (centres undefined) | 6.1 | ·
CC(=O)Oc1ccccc1C(=O)N1CCC(N(C2CC2)S(=O)(=O)c2ccc(Cl)cc2)CC1 | -0.69 | ·
CC1CCCCC1n1c(SCC(=O)c2ccc(Br)s2)nnc1-c1cccnc1 (centres undefined) | · | -1.2
CCOC(=O)C1=NN(c2cccc(Cl)c2)C2(S1)c1ccccc1C(c1ccc(C)cc1)=NN2c1ccccc1 (centres undefined) | -0.5 | ·

The list goes on.
mol | CapD inh | AID504770
COc1cccc(-c2noc(C(C)Oc3ccccc3)n2)c1 (centres undefined) | 0.085 | 0.45
CC(C)C(=O)Nc1ccc(CN2CCOCC2)cc1 | 0.26 | -0.85
Cc1ccc(SCC(=O)N2CCN(c3ccc(C(F)(F)F)cc3[N+](=O)[O-])CC2)cc1 | -1.3 | ·
Cc1ccc2occ(C3Nc4cc(C)c(C)cc4NC4=C3C(=O)CC(C)(C)C4)c(=O)c2c1 (centres undefined) | -0.26 | ·
O=C(N/C=C/[P+](c1ccccc1)(c1ccccc1)c1ccccc1)c1ccccc1 | 0.34 | ·
Cc1cccc(C)c1NC(=S)NCc1cccnc1 | -0.86 | ·
CCCCN1C(=O)/C(=C(\C#N)C(N)=O)c2ccccc21 | -2.8 | -0.45
CCCCC(=O)Nc1nn2c(-c3cccc(C)c3)nnc2s1 | 0.52 | -0.25
CCCCNC(=O)C1CCC(=O)N1Cc1ccccc1Cl (centres undefined) | -0.15 | 0.4
c1ccc(C2CC(c3ccccc3)n3nnnc3N2)cc1 (centres undefined) | 0.61 | -1
N#Cc1cc2c(nc1SCC(=O)Nc1cccc(C(F)(F)F)c1)CCC2 | 0.07 | ·
O=C(c1ccc(Cl)cc1)n1c(=O)oc2cc(Cl)ccc21 | -0.39 | -0.5

Next entries follow.
mol | CapD inh | AID504770
O=C(NC1CCN(Cc2ccccc2)C1)OCc1ccc2ccccc2c1 (centres undefined) | -0.32 | ·
O=C1CC(c2cccs2)Cc2nc(NCCN3CCOCC3)ncc21 (centres undefined) | 0.27 | -0.05
CCOC(=O)c1c(C)oc2c1c1c(c3ccccc32)OCN(C(C)C)C1 | · | 0
O=C(c1ccc(O)cc1)N1Cc2ccccc2NC1=S | 0.52 | 3
CSc1ccc(CCNC(=O)Nc2cn(C)c(=O)c3ccccc23)cc1 | 13 | 2.1
O=C(Nc1ccc(-c2noc(-c3ccccc3Br)n2)cc1)c1ccco1 | -0.44 | ·
O=C(c1cccc2cc[nH]c12)N1CCc2ccccc2C1 | 0.41 | ·
CCc1ccc(-n2[nH]c(=O)c(/C=c3/c(C)c(C#N)c4nc5ccccc5n4c3=O)c2O)cc1 | -0.35 | -0.4
O=C(O)CSCC(=O)Nc1ccccc1-c1ccccc1 | 0.46 | -0.65
N#Cc1ccccc1/C=N/NC(=O)c1cc2ccccc2cc1O | -0.51 | ·
CC1(C)CC(=O)C2=C(C1)N(c1ccc(Br)cc1)C(N)=C(C#N)C2c1cccs1 (centres undefined) | 1.9 | ·
Cc1cn2c(=O)c(C(=O)NC3=NCCS3)cnc2s1 | · | -0.8

Among those listed so far, these contain a CF3 group:
mol | CapD inh | AID504770
COc1ccc(OCC(O)CNC(=O)c2ccc(C(F)(F)F)nc2C)cc1 (centres undefined) | 0.2 | -0.55
FC(F)(F)c1cnc(-c2cnc3cc(-c4ccccc4)nn3c2)c(Cl)c1 | -0.29 | ·
CCNC(=O)C(=O)Nc1ccc(Cl)c(C(F)(F)F)c1 | -0.005 | ·
Cc1ccc(SCC(=O)N2CCN(c3ccc(C(F)(F)F)cc3[N+](=O)[O-])CC2)cc1 | -1.3 | ·
N#Cc1cc2c(nc1SCC(=O)Nc1cccc(C(F)(F)F)c1)CCC2 | 0.07 | ·

Other records:
mol | CapD inh | AID504770
O=C(c1ccccc1)c1ccccn1 | 0.17 | -1.1
CC1CC(C)(C)N(C(=O)c2ccccc2F)c2ccccc21 (centres undefined) | 0.68 | -0.5
CC(=O)Nc1ccc(/C=C2/C(=O)N(CCC#N)C=C2C)cc1 | · | 0.2
CCCNC(=O)Cn1c2ccccc2c2cn[nH]c(=O)c21 | 3.2 | -0.65
COc1ccc(Cc2nn3c(C(F)(F)F)nnc3s2)cc1OC | -0.28 | -0.3
CCc1nnc(NC(=O)c2sc3nc(-c4ccccc4)cc(C(F)(F)F)c3c2N)s1 | -0.32 | ·
O=C(CCNC(=O)c1ccccc1Cl)Nc1nccs1 | · | 0.1
CC1CC(C)CN(C(=O)c2ccc(CSc3nc4ccncc4[nH]3)cc2)C1 (centres undefined) | 0.56 | 0.6
O=C(NC1=NCCS1)C1COc2ccccc2O1 (centres undefined) | · | 0.3
NC(=O)c1ccc(-n2nnnc2Oc2ccccc2C(=O)N2CCOCC2)cc1 | 0.46 | 0.85
O=C(CNc1nnnn1-c1ccccc1)Nc1ccc(F)c(F)c1F | · | -1.1
CC(C)NC(=O)COn1nnc2ccc(Cl)cc21 | · | -0.2

The listing continues.
mol | CapD inh | AID504770
O=C(Nc1ccc(C(F)(F)F)cc1)N1C2CCC1CC(O)(c1cccnc1)C2 (centres undefined) | · | -0.15
CCC(=O)/C=C1/Sc2ccc(OC)cc2N1CC | 6.3 | -0.7
CCSc1nncc(-c2ccccc2)n1 | 0.23 | 0.45
O=C1CCC(=O)N1N1C(=O)C2C3c4ccccc4C(c4ccccc43)C2C1=O (centres undefined) | 0.41 | -0.85
COc1ccc(C2C3C(=O)N(Cc4ccccc4)C(=O)C3ON2c2ccccc2)cc1O (centres undefined) | -0.1 | -0.8
CCOC(=O)c1c(C)oc2ccc(N(C(=O)c3ccccc3Cl)S(=O)(=O)c3ccc(C)cc3)cc12 | -0.43 | ·
O=c1oc2ccccc2c(O)c1C=NCc1ccccn1 | · | -0.05
CCS(=O)(=O)Nc1cc(C(C)(C)C)ccc1OC | -0.13 | -0.85
FC(F)(F)Oc1ccc(-n2[nH]nnc2=S)cc1 | · | 0
CCC12CCCN3CCc4c(n(c5ccccc45)C(=O)C1)C32 (centres undefined) | -0.13 | -0.55
Cc1cc(Cl)ccc1OC(C)C(=O)N/N=C/c1ccc(Oc2ccccc2)cc1 (centres undefined) | -0.065 | ·
Cc1cccc(CN2C(=O)/C(=C\c3ccc(C(=O)N4CCCC4)cc3)Oc3ccccc32)c1 | 0.075 | 1.6

More records.
mol | CapD inh | AID504770
Cc1ccsc1C1CC(c2ccc(Cl)cc2)Nc2ncnn21 (centres undefined) | -0.29 | ·
COc1ccccc1Nc1ccc(N=Cc2ccc(F)c(F)c2)cc1 | -0.54 | 1
CSc1cccc(NC(=O)CSCc2ccc(Cl)cc2)c1 | -0.49 | -0.75
CN1C(=O)c2ccc(C(=O)O)cc2CC1c1ccccc1 (centres undefined) | · | -0.45
CC1(C)Cc2c(nn(-c3ccccc3)c(=O)c2C#N)CO1 | 0.06 | 0.6
CN(C)C(=O)Oc1ccc2c(-c3ccccc3)cc(=O)oc2c1 | 0.57 | -0.25
O=C(CCN1C(=O)c2ccccc2C1=O)Nc1ccc(S(=O)(=O)Nc2ncccn2)cc1 | 0 | -0.45
COc1cccc(-c2cn3nc4c(nc3n2)CCCC4)c1 | 50 | ·
Fc1ccc(-c2nc3ccccc3[nH]2)cc1 | 3.5 | -1.4
CCSc1nnc2c(n1)[nH]c1c(C)cccc12 | -1 | ·
CCC(C)NC(=O)Cn1c(=O)n(-c2ccccc2)c(=O)c2c3c(sc21)CCCC3 (centres undefined) | -0.61 | -0.65
CS(=O)(=O)c1cnc(-c2cccnc2)nc1-c1ccccc1C(F)(F)F | -0.4 | ·

Exported field by field: entries from further up
> CCS(=O)(=O)Nc1cc(C(C)(C)C)ccc1OC
  CapD inh: -0.13	AID504770: -0.85

> COc1ccc(OCC(O)CNC(=O)c2ccc(C(F)(F)F)nc2C)cc1 (centres undefined)
  CapD inh: 0.2	AID504770: -0.55

(more compounds)
mol | CapD inh | AID504770
COc1ccc(-c2nn(-c3ccccc3)cc2C(=O)N2CCCCC2)cc1OC | 0.31 | 0.35
CCN(CC)S(=O)(=O)c1ccc2oc(C(=O)NC3CCCCC3C)c(C)c2c1 (centres undefined) | 0.41 | -0.25
O=S(=O)(CCN1CCC(n2cccc2)CC1)c1ccccc1 | -0.26 | 1.1
Cc1ccc(-n2c(=O)c3c(cnn3C)n(Cc3cccc(C)c3)c2=O)cc1 | -0.035 | -0.05
CN1C2CCC1C(C(=O)O)C(OC(=O)c1ccccc1)C2 (centres undefined) | 2.1 | ·
CC(=O)c1sccc1NC(=O)c1ccccc1C(=O)O | -0.22 | ·
CCCCCCCCn1c2cc(Cl)cc(Cl)c2c2c(Cl)cc(Cl)cc21 | 0.065 | ·

Compound activity from PubChem.
